Compound activity deposited in PubChem BioAssay by National Center for Advancing Translational Sciences (NCATS).
Vaccinia mCherry: vaccinia inhibition (mCherry reporter). AID 720579. Potency, µM (titrated, usually from 36.5 µM), without a hit: top-dose activity change, negative = inhibition, most hits filed as inhibitors. 310,000 tested, 0.63% active. Vaccinia virus mCherry reporter infection, fluorescence; about a quarter of the inactives have no number; active = well fitted inhibition curve with a large enough effect; inconclusive = small, poorly fitted or top-dose-only effect; inactive = no such curve, though single readings can be large or run the other way; tested in A549 cells; note: nearly all actives have a fitted effect of over 35% in size; inactives centre near -10
VACV Venus inh: inhibitors of vaccinia virus (Venus reporter). Potency, µM (titrated, usually from 36.5 µM), for the others: at the top dose activity change, negative = inhibition, hits mostly inhibitors. 330,000 tested, 0.46% active. Vaccinia virus Venus reporter expression, fluorescence; active means well fitted inhibition curve with a large enough effect; inconclusive means small, poorly fitted or top-dose-only effect; inactive means no such curve, though single readings can be large or run the other way; tested in A549 cells; note: nearly all actives have a fitted effect of over 30% in size; inactives centre near -10
Active calls of the source: *; i = inactive; ? = inconclusive; / = no result given; [ ] = dose if it differs, or a comment. % is set by controls: 0 for no effect and ±100 for the full control effect; potency is the fitted concentration of half-maximal effect. The order is random. Share with any hit: about 0.87%.

Preview (5 entries):
Values in the order – VACV Venus inh | Vaccinia mCherry
1	COc1ccc(N(CC(=O)NCCSCc2ccco2)S(=O)(=O)c2ccc(C)cc2)cc1
    -8.0% | -10.2%
2	COc1ccc(C(=O)NCC(c2ccc(N(C)C)cc2)N2CCCC2)cc1 (stereo not drawn)
    ? | 5.5%
3	CC1CCN(C2(O)C(=O)Nc3ccc([N+](=O)[O-])cc32)CC1 (stereo not drawn)
    -6.9% | -8.9%
4	CN1CC(=O)N(CC(=O)Nc2ccc(N(C)C)cc2)c2ccccc2C1=O
    -3.6% | -3.7%
5	O=C(NCc1ccccc1)c1cc(C2CCCN(C(=O)c3ccccc3)C2)on1 (stereo not drawn)
    -10.5% | i

Main list, previewed entries included:
Values in the order – VACV Venus inh | Vaccinia mCherry
1	COc1ccc(N(CC(=O)NCCSCc2ccco2)S(=O)(=O)c2ccc(C)cc2)cc1
    -8.0% | -10.2%
2	COc1ccc(C(=O)NCC(c2ccc(N(C)C)cc2)N2CCCC2)cc1 (stereo not drawn)
    ? | 5.5%
3	CC1CCN(C2(O)C(=O)Nc3ccc([N+](=O)[O-])cc32)CC1 (stereo not drawn)
    -6.9% | -8.9%
4	CN1CC(=O)N(CC(=O)Nc2ccc(N(C)C)cc2)c2ccccc2C1=O
    -3.6% | -3.7%
5	O=C(NCc1ccccc1)c1cc(C2CCCN(C(=O)c3ccccc3)C2)on1 (stereo not drawn)
    -10.5% | i
6	Cc1ccc(S(=O)(=O)CCC(=O)OCC(=O)Nc2cccc(S(=O)(=O)N3CCCCC3)c2)cc1
    -3.2% | i
7	CCc1ccc(C(=O)NC(C(=O)NCC2CCCO2)C(C)C)cc1 (stereo not drawn)
    -18.8% | -14.5%
8	CC(=O)NC(=S)Nc1ccc(NC(=O)COc2ccc(Cl)cc2)cc1
    -3.8% | -2.0%
9	CC(Oc1ccccc1F)C(=O)NNC(=O)CC(C)c1ccccc1 (stereo not drawn)
    -15.3% | -19.6%
10	O=C(CCCNC(=O)/C(=C\c1ccc(F)cc1)NC(=O)c1ccccc1)OCc1ccccc1
    -12.7% | /
11	O=C(Nc1cccc(OCc2cc(=O)n3ccccc3n2)c1)Nc1cccc(C(F)(F)F)c1
    -18.6% | -2.2%
12	COc1ccc(C(C)=O)cc1CN1C(=O)C(C)ON=C1c1ncccc1C (stereo not drawn)
    7.2% | i
13	O=c1cc(CN2CCN(c3ccccc3F)CC2)c2cc(O)c(-c3ccccc3)cc2o1
    -2.4% | -17.4%
14	COC1=CC2[C@@H]3Cc4ccc(OC)c(O)c4[C@]2(CCN3C)CC1=O (stereo partly drawn)
    -25.0% | -4.6%
15	Cc1cc(C)n(CCN(C)C(=O)CCc2nnc(-c3ccc4c(c3)OCO4)o2)n1
    -11.5% | i
16	COc1ccccc1CNC(=O)C1CCN(S(=O)(=O)c2c(C)noc2/C=C/c2c(C)cc(C)cc2C)CC1
    -8.1%[7.34 µM] | -4.9%[7.34 µM]
17	O=C(CCCCn1c(=O)c2ccccc2n(CC(=O)NC2CCCC2)c1=O)NCc1ccco1
    -9.1% | /
18	CCCCCCCCN1C(=O)[C@H](CC(=O)NCc2ccccc2)C[C@@]2(C(=O)OC)CC(C)(C)CC=C12
    ? | ?
19	CCOC(=O)C1=C(N)Oc2ccc(Br)cc2C1C(C#N)C(=O)OCC (stereo not drawn)
    -12.6% | i
20	CCOC(=O)C1CCCN(C(=O)c2cc3c(-c4cccc(OC)c4)nn(C)c3s2)C1 (stereo not drawn)
    -21.6% | -17.9%
21	O=C1Nc2ccccc2N(O)N1c1ccc(S(=O)(=O)N2CCOCC2)cc1
    -0.8% | -7.5%
22	C=CCn1c(SCc2c(C(=O)OC)sc(N)c2C(=O)OC)nnc1-c1ccc(Cl)cc1
    -25.3% | -13.4%
23	Cc1ccc(C(C(=O)NCC2CCCO2)N(C(=O)c2snc(C(N)=O)c2N)c2ccccc2F)o1 (stereo not drawn)
    -7.0% | -3.4%
24	COc1ccc(C(=O)NCC(c2ccc(N(C)C)cc2)N2CCc3ccccc32)cc1OC (stereo not drawn)
    -11.1% | -0.7%
25	Cc1ccc(CSCC(=O)N(CCC(C)C)c2c(N)n(Cc3ccccc3)c(=O)[nH]c2=O)cc1
    -7.1% | -14.0%
26	Cn1ccc2c(N3CCCC3)cc3c(c21)C1CCC3C1 (stereo not drawn)
    ? | ?
27	CN(C(=O)c1ccc(NC(=O)Cc2ccc(NC(=O)C3CCN(C(=O)c4ccccc4)CC3)cc2)cc1)C1CCCC1
    -1.0% | -1.9%
28	CCOC(=O)C1=CN(Cc2ccco2)S(=O)(=O)NC1c1ccc(Br)cc1F (stereo not drawn)
    -25.4% | i
29	O=C(c1cc2ccc([N+](=O)[O-])cc2oc1=O)N1CCOCC1
    -10.5% | -3.8%
30	Cc1cc(=O)oc2cc(OCC(=O)OCC(=O)Nc3ccc(C(C)C)cc3)ccc12
    -12.9% | i
31	CCOC(=O)C1CCN(C(=O)CN2C(=O)c3ccccc3S2(=O)=O)CC1
    0.8% | -9.0%
32	CN(C)C(=O)[C@@H]1C[C@@H](Sc2nc3ccccc3[nH]2)CN1Cc1ccc(Cl)cc1
    -12.8% | -15.8%
33	Cc1ccc(CCNC(=O)c2ccc(CSCc3ccc(C)cc3)o2)cc1
    -18.2% | i
34	O=C(NC(=S)Nc1ccc(F)cc1)C1CCCCC1
    -12.3% | -20.8%
35	Cc1ccc(NC(=O)C2CCN(S(=O)(=O)c3cccc4nonc34)CC2)cc1C
    -8.6% | -17.8%
36	O=C(c1cc(COc2cccc(C(F)(F)F)c2)on1)N1C[C@@H]2CCC[C@H]1C2
    -27.2% | -5.4%
37	CN1C(=O)C2(C(C#N)=C(N)N(c3cc(Cl)cc(Cl)c3)C3=C2C(=O)CC(C)(C)C3)c2ccccc21 (stereo not drawn)
    -7.6% | /
38	CCS(=O)(=O)NCCc1csc(-c2cccnc2)n1
    6.3% | -3.3%
39	O=C(CN1C(=O)c2ccccc2C1=O)N1CCN=C1c1ccccc1
    -0.1% | -7.4%
40	CNC(=O)c1sc(-c2ccccc2)nc1C
    -18.0% | /
41	COC(=O)CNC(=O)C12CC3CC(C1)CC(c1ccc(C)cc1)(C3)C2
    -6.6% | i
42	CCN1CCN(C(=O)c2ccc3c(c2)N(Cc2cccc(F)c2)C(=O)c2ccccc2S3)CC1
    -4.5% | -11.7%
43	CCC(C)[C@H](NC(=O)NCCC1=CCCCC1)C(=O)OC (stereo partly drawn)
    14.7% | 0.9%
44	Cc1ccccc1Cn1c(=O)n(Cc2ccco2)c(=O)c2oc3ccccc3c21
    -10.1% | -12.6%
45	O=[N+]([O-])c1ncccc1Oc1nc(-c2cccnc2)nc2ccccc12
    -12.0% | -13.6%
46	O=c1[nH][nH]c2c1[C@H](c1ccc(Cl)cc1)O[C@H](C1CCCCC1)C2
    -11.7% | 12.7%
47	CSc1ccccc1C(=O)Nc1nc2ccccc2[nH]1
    -13.3% | -1.1%
48	O=C(CN1CCOCC1)N1CCOCC1
    -4.7% | i
49	CC(Oc1ccc(Cl)cc1)c1ccnn1S(=O)(=O)c1ccccc1 (stereo not drawn)
    -12.4% | -4.2%
50	OCCN(Cc1ccccc1)Cc1ccc(Cl)cc1Cl
    -0.6% | -2.3%
51	CC1=C(C(=O)Nc2cccc(C(=O)NCC(C)c3ccccc3)c2)SCCO1 (stereo not drawn)
    -14.9% | i
52	CN1CCN(c2ccc(N)cc2Cl)CC1
    -1.6% | -0.8%
53	O=C(NNC(=O)c1cc(-c2cccnc2)nc2ccccc12)Nc1ccc(Cl)cc1
    -14.1% | -11.8%
54	CCN(CC)S(=O)(=O)c1ccc(F)cc1
    -12.3% | i
55	CCCOc1ccc(C(=O)NNC(=O)CCNC(=O)c2ccccc2Cl)cc1OC
    -15.6% | i
56	Cc1cccc(-n2c(O)c(C=NCCN3CCNCC3)c(=O)[nH]c2=S)c1
    -8.4% | i
57	CC(=O)Nc1ccc(CN2C(=O)C(C)(C)ON=C2c2ccc(NC(C)=O)cc2)cc1
    4.6% | 23.8%
58	Cc1c(/C=N/NC(=O)c2sc3ccccc3c2Cl)cnn1C
    -20.0% | -25.3%
59	COc1cc(NC(=O)CN2CCN(c3ccccc3O)CC2)c(C)cc1[N+](=O)[O-]
    -8.8% | -15.5%
60	O=C(Nc1ccc(S(=O)(=O)N2CCCC2)cc1)C1CC(=O)N(c2ccccc2)C1 (stereo not drawn)
    -5.8% | -11.9%

Reprinted from the part before: two compounds, then new ones.
Values in the order – VACV Venus inh | Vaccinia mCherry
59	COc1cc(NC(=O)CN2CCN(c3ccccc3O)CC2)c(C)cc1[N+](=O)[O-]
    -8.8% | -15.5%
60	O=C(Nc1ccc(S(=O)(=O)N2CCCC2)cc1)C1CC(=O)N(c2ccccc2)C1 (stereo not drawn)
    -5.8% | -11.9%
61	Cc1nn(C)c(C(=O)Sc2ccccc2)c1[N+](=O)[O-]
    -10.1%[7.34 µM] | i[7.34 µM]
62	CC(C)C1C(=O)N(Cc2cn(CC3CCCCC3)nn2)CCS(=O)(=O)N1Cc1ccc(-c2cccc(CO)c2)cc1 (stereo not drawn)
    ? | ?
63	COc1ccc2[nH]c(=O)c(-c3nnn(-c4ccccc4)n3)cc2c1
    -13.2% | -13.8%
64	Cc1cc(C)cc(NC(=O)c2sc3nc(-c4ccccc4)cn3c2C)c1
    -22.5% | -6.1%
65	Fc1ccc(NC(=S)NCc2cccs2)cc1
    -18.4% | i
66	COc1ccc(OCCNC(=O)Nc2cc(F)c(F)cc2Cl)cc1
    -18.1% | -0.5%
67	COC(=O)C(C)(N)Cc1ccc(O)cc1 (stereo not drawn)
    -15.0% | -14.5%
68	COC(=O)CC(NC(=O)c1ccc(C)cc1)c1ccc2c(c1)OCO2 (stereo not drawn)
    -5.6% | i
69	CC(C)CC(=O)Nc1ccc(Cc2ccncc2)cc1
    -6.7% | i
70	CCCCCC(=O)Nc1cc(S(=O)(=O)N2CCOCC2)ccc1N1CCCC1
    -17.6% | -4.3%
71	CCN1CCN(C(=O)Cc2coc3ccc4ccccc4c23)CC1
    -5.7% | -28.6%
72	CCOC(=O)CC1C(C(=O)OCC)ON2OC(C(=O)OC)C(C(=O)OCC)C12 (stereo not drawn)
    -1.7% | -10.4%
73	O=C(c1cc(C(=O)NCc2ccc(Cl)cc2)c(=O)n(Cc2ccc(Cl)cc2)c1)c1cc(F)ccc1O
    -4.6% | -13.2%
74	COC(=O)[C@H](Cc1ccccc1)NC(=O)N(C)Cc1ccccc1
    -16.6% | i
75	COc1ccc[nH]c1=O
    -3.6% | i
76	CC[C@@H](C)[C@H](NC(=O)OC(C)(C)C)c1nnc(S(=O)(=O)Cc2cc(C)ccc2C)o1
    ? | /
77	CCCC(=O)N(CCN1CCOCC1)c1nc2c(OC)ccc(OC)c2s1
    0.0%[7.34 µM] | i[7.34 µM]
78	CCOc1cc(C2C(C#N)=C(N)Oc3n[nH]c(-c4ccncc4)c32)cc([N+](=O)[O-])c1O (stereo not drawn)
    -13.8% | -0.8%
79	CCc1ccc(NC(=O)CNCc2ccc(OC)c(OC)c2)cc1
    -8.1% | i
80	CC12CCC=CC1=C(C=O)C1C2CCC2(C)C(O)CCC12 (stereo not drawn)
    ? | ?
81	CC(C)c1ccc(S(=O)(=O)N2CCN(CCC(=O)Nc3ccc(N(C)C)cc3)CC2)cc1
    -0.5% | /
82	CC1CC2CC(=O)C3CCCN4CCCC2[C@]34C1 (stereo partly drawn)
    10.0% | 1.1%
83	CCNC(=O)CCSc1nnc(-c2ccc(O)cc2)o1
    5.4% | 3.0%
84	Cc1cccc(-n2ccnc2SCC(=O)O)c1C
    -15.6% | -19.3%
85	CC(C)Sc1ncnc2[nH]ncc12
    -14.6% | i
86	CC(=O)c1cccc(S(=O)(=O)N2CCN(c3nc(-c4cccs4)nc4ccccc34)CC2)c1
    -20.0% | -25.7%
87	Cc1ccc(-c2noc(C3CCCN(C(=O)c4cccc(Cl)c4)C3)n2)o1 (stereo not drawn)
    -7.8% | -12.8%
88	Cc1ccc(NCc2nnc(SCC(=O)c3ccc4c(c3)OCCO4)o2)c(C)c1
    -11.7% | i
89	CCN(CC)c1ccc(N=Cc2c(O)n(CCc3ccc(OC)c(OC)c3)c(=O)[nH]c2=O)cc1
    -7.4% | -14.3%
90	C=CCN(c1ccccc1OC)S(=O)(=O)c1cccc(C(=O)OCC(=O)c2c[nH]c3ccccc23)c1
    -24.4% | -15.9%
91	O=C(CCS(=O)(=O)c1ccccc1)Nc1nc2cc3c(cc2s1)OCO3
    ? | ?
92	COc1cc2c(cc1OC)CN(C(=O)C(C)(C)C)CC2
    -12.9% | -12.0%
93	COc1cc(/C=N/N2CCN(c3ccccc3OC)CC2)ccc1OC(C)=O
    -22.6% | i
94	CNC(=O)c1[nH]nc2c1CCc1ccccc1-2
    -8.0% | -12.1%
95	O=C(CCC(=O)N1CCOc2ccccc21)Nc1cc(F)ccc1F
    4.0% | -1.5%
96	Cc1ccc2c(c1)C1CN(C)CCC1N2C(=O)COc1ccc(S(=O)(=O)N2CCOCC2)cc1 (stereo not drawn)
    -2.9% | ?
97	COc1cccc2c(=O)n(CC(=O)N3CCC(C)CC3)ccc12
    -11.3% | -3.3%
98	Cn1cc([C@@H]2C[C@H]3CN(C4CCCC4)C(=O)[C@]34CCCN24)c(-c2ccccc2)n1
    -7.5% | -14.4%
99	CCN(CC)C(=O)c1cn(CCC#N)nc1-c1ccc2ccccc2c1
    -9.5% | -10.7%
100	Cc1ccc(C)c(NC(=O)N2CCc3cc(S(=O)(=O)N4CCC(C)CC4)ccc32)c1
    -5.2% | -10.2%
101	CC(=O)c1ccc(NC(=O)Nc2sc(NS(=O)(=O)c3ccccc3)nc2C)cc1
    -6.2% | 4.2%
